gsp ag – agonists of gsp mutant (McCune-Albright syndrome). actives 0.13% (n = 340,000). Potency, µM (doses to about 76.9 µM), for the others: at the top dose activation (cAMP increase), usual class: activators. gsp mutant cells, cAMP HTRF, 30 min; control for the full effect not named in the record; active = well fitted activation curve with a large enough effect; inconclusive = small, poorly fitted or top-dose-only effect, or another doubt; inactive = no such curve, though single readings can be large or run the other way; cell line not stated here;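 further: phosphodiesterase inhibitor Ro 20-1724 added with compounds to block cAMP breakdown; nearly all actives have a fitted effect of over 60% in size; about a fifth of the inactives were tested at one dose only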
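Cells in DMEM/10% FBS with G418 were pretreated with compounds in DMSO plus […] (300 uM stock) for 30 min at 37C. cAMP was measured by HTRF (cAMP-d2 plus anti-cAMP antibody-K) after 30 min at room temperature.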
ClpP mod – qHTS Assay for Activators of ClpP | purified B. subtilis ClpP, FRET peptide cleavage, 20 min | ATP-dependent Clp protease proteolytic subunit (Bacillus subtilis (strain 168)), P80244 | actives 1.9% (n = 340,000) | AID 651965, 2013 | Potency, µM (highest dose often 57.5 µM), for inactives: top-dose activity change, negative = active; active = well fitted falling curve with a large enough effect; inconclusive = small, poorly fitted or top-dose-only effect; inactive = no such curve, though single readings can be large or run the other way; further: the source files actives as falling curves though it sought activators and does not explain the sign; nearly all actives have a fitted effect of over 65% in size; many hits overshoot -100%
Target sequence (P80244 whole entry, looked up): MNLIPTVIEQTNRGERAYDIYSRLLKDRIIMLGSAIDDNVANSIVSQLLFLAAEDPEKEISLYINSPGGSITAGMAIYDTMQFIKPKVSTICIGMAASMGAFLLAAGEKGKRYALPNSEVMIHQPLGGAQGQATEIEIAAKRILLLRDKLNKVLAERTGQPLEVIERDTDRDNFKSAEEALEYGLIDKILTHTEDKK
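Purified B. subtilis ClpP, 10 microg/mL final in Tris/HCl pH8 with KCl, BSA, glycerol and Tween-20, cleaved an Abz/nitrotyrosine-quenched decapeptide. Fluorescence (ex 320, em 430) was read at 0 and 20 min at room temperature. Delta was normalized to 5.8 microM ADEP and DMSO/no-enzyme controls.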
The depositor's hits bear a star; ? = inconclusive; · = no result given; [ ] = remark or other dose. Potency means the concentration at half of the fitted maximal effect. Only part of the results is shown (hit frequency here may not be typical).

[1] O=C(COc1cc(Cl)ccc1Cl)Nc1ccc(Cl)cc1C(=O)c1ccccc1
[2] Cc1ccccc1CN1C(=O)C(C)N=C(c2ccccc2)c2ccccc21 (stereo not given)
[3] CN(Cc1cccc(-c2ccncc2)c1)C(=O)Oc1ccc([N+](=O)[O-])cc1
[4] Cc1ccc(-n2c(/C=C/c3cc(Br)cs3)nc3ccccc3c2=O)cc1
[5] Cc1ccc(NC(=O)N(Cc2ccc3c(c2)OCO3)C2CCN(Cc3ccccc3)CC2)cc1C
entry no.	1	2	3	4	5
gsp ag	·	·	·	·	·
ClpP mod	-0.9%	0.5%	-1.0%	-1.7%	-0.3%

[6] Cc1ccc(-c2nn3c(=O)cc(CN4CCN(C(=O)COc5ccc(C)c(C)c5)CC4)nc3s2)cc1
[7] Cc1ccccc1-n1c(/C=C/c2c(C)[nH]c3ccccc23)nc2ccccc2c1=O
[8] Cc1ccc(NC(=O)CN2C(=O)CN=C(c3ccccc3)c3ccccc32)c(C)c1
[9] Cc1ccc(CN2C(=O)c3ccccc3Sc3ccc(C(=O)N4CCC5(CC4)OCCO5)cc32)cc1
[10] COc1cc(C2c3cc4c(c(O)c3CC3COC(=O)C32)OCO4)cc(OC)c1O (stereo not given)
entry no.	6	7	8	9	10
gsp ag	·	·	·	·	·
ClpP mod	-0.7%	-1.1%	-1.0%	-0.9%	-1.7%

[11] O=C(Nc1ccc2c(c1)OCO2)c1cccn(Cc2ccccc2)c1=O
[12] Cc1ccc(Sc2ccc(N3CCCC(C(=O)Nc4ccc(Cl)cc4)C3)nn2)cc1 (stereo not given)
[13] Cc1ccc(-c2nc3c(=O)n(C)c(=O)nc-3n(C)n2)cc1
[14] COC(=O)[C@@H]1N=C(c2ccc(OC)cc2)O[C@]12C(=O)N(C)c1ccc(Cl)cc12
[15] CCOC(=O)c1cc2ccccc2n1C1CCN(Cc2ccccc2)CC1
entry no.	11	12	13	14	15
gsp ag	·	·	·	·	·
ClpP mod	2.4%	?	-0.9%	-4.1%	?

[16] CCc1cccc(NC(=O)CN2C(=O)CN=C(c3ccccc3F)c3cc(Cl)ccc32)c1
[17] CCOC(=O)[C@]12Cc3cc(C)ccc3[C@H]1N(CCC(=O)OC)C(=O)c1cc(OC)ccc12
[18] CCOC(=O)[C@]12Cc3ccccc3[C@H]1N(Cc1ccccc1)C(=O)c1cc(OC)ccc12
[19] Cc1cccc(NC(=O)Cn2cc(C(=O)c3ccccc3)c3ccccc32)c1
[20] Cc1oc(-c2ccc(Cl)cc2)nc1CN1C(=O)CN=C(c2ccccc2)c2ccccc21
entry no.	16	17	18	19	20
gsp ag	·	·	·	·	·
ClpP mod	-3.4%	-1.5%	-9.9%	-18%	0.5%

Compounds shown so far that contain a carbonyl joined to an NH by a bond outside any ring, in the order listed:
[1] O=C(COc1cc(Cl)ccc1Cl)Nc1ccc(Cl)cc1C(=O)c1ccccc1
[5] Cc1ccc(NC(=O)N(Cc2ccc3c(c2)OCO3)C2CCN(Cc3ccccc3)CC2)cc1C
[8] Cc1ccc(NC(=O)CN2C(=O)CN=C(c3ccccc3)c3ccccc32)c(C)c1
[11] O=C(Nc1ccc2c(c1)OCO2)c1cccn(Cc2ccccc2)c1=O
[12] Cc1ccc(Sc2ccc(N3CCCC(C(=O)Nc4ccc(Cl)cc4)C3)nn2)cc1 (stereo not given)
[16] CCc1cccc(NC(=O)CN2C(=O)CN=C(c3ccccc3F)c3cc(Cl)ccc32)c1
[19] Cc1cccc(NC(=O)Cn2cc(C(=O)c3ccccc3)c3ccccc32)c1
entry no.	1	5	8	11	12	16	19
gsp ag	·	·	·	·	·	·	·
ClpP mod	-0.9%	-0.3%	-1.0%	2.4%	?	-3.4%	-18%

(more compounds)
[21] Cc1ccc2c(c1)cc(C(=O)Nc1ccccc1C)n2C
[22] Cc1ccc(-n2nc(C)c3c2NC(=O)CSC3c2ccc(O)cc2)cc1Cl (stereo not given)
[23] CCOc1ccc(CN(CCc2ccc3c(c2)OCO3)Cc2cc(OC)ccc2O)cc1
[24] Cc1nnc(NC(=O)c2cccn(Cc3cccc(Cl)c3)c2=O)s1
[25] O=S1(=O)N(Cc2ccccc2)CCCN1Cc1cccc(Cl)c1
entry no.	21	22	23	24	25
gsp ag	·	·	·	·	·
ClpP mod	34%	-6.1%	0.3%	-1.9%	-2.1%

[26] CC(C)(OOC1(c2ccccc2)NC(=O)c2ccccc21)c1ccccc1 (stereo not given)
[27] C=C1C=C(C(F)F)n2ncc(C(=O)NCc3ccccc3F)c2N1
[28] COC(=O)[C@@H]1N=C(c2ccc(OC)cc2)O[C@]12C(=O)N(C)c1cccc(Cl)c12
[29] CCOC(=O)[C@]12Cc3c(cc(OC)c(OC)c3OC)[C@H]1N(C(C)C)C(=O)c1ccccc12
[30] CCOC(=O)[C@]12Cc3cc(C)ccc3[C@H]1N(C)C(=O)c1ccccc12
entry no.	26	27	28	29	30
gsp ag	·	·	·	·	·
ClpP mod	1.3%	-1.1%	0.4%	0.7%	-1.7%

[31] O=C1CC(c2ccc(F)cc2)c2c(c3ccccc3oc2=O)O1 (stereo not given)
[32] CCc1ccc(OCC(=O)N2CCN(CCc3ccncc3)CC2)cc1
[33] Cc1cc(OCC(=O)N2CCN(CCc3ccccn3)CC2)cc(C)c1Cl
[34] COc1ccccc1C(=O)Nc1ccc2nc(SCC(=O)N3CCCc4ccccc43)sc2c1
[35] COc1ccc(OC)c(NC(=O)Cn2cc(C(=O)c3ccccc3F)c3ccccc32)c1
entry no.	31	32	33	34	35
gsp ag	·	·	·	·	·
ClpP mod	4.5%	1.4%	0.7%	10µM*	-4.2%

[36] COc1ccc(NC(=O)c2sc3nc4c(cc3c2N)N2CCC4CC2)cc1OC
[37] Cn1c(=O)n(C)c2cc(CNCCc3ccc(F)cc3)ccc21
[38] Cc1ccc(Cn2cccc(C(=O)Nc3cc(C)on3)c2=O)cc1
[39] COc1ccc(OC)c(CCNCc2c(C(=O)O)c(C)n(Cc3ccc(F)cc3Cl)c2C)c1
[40] O=C(Nc1cc(C(F)(F)F)cc(C(F)(F)F)c1)c1cccn(Cc2ccccc2Cl)c1=O
entry no.	36	37	38	39	40
gsp ag	·	·	·	·	·
ClpP mod	-6.1%	-0.4%	?	1.3%	-5.2%

[41] CCOc1ccc(NC(=O)Cn2cc(C(=O)c3ccccc3)c3ccccc32)cc1
[42] CCOC(=O)[C@]12Cc3ccc(C)cc3[C@H]1N(C1CCCCC1)C(=O)c1cc(OC)ccc12
[43] Cc1cccc(-c2nn3c(=O)cc(CN4CCN(C(=O)COc5ccc(Cl)cc5)CC4)nc3s2)c1
[44] COc1ccc(C)cc1NC(=O)c1cccn(Cc2cccc([N+](=O)[O-])c2)c1=O
[45] ClCCN(CCCl)/C(=C\c1ccccc1)c1ccnc2ccccc12
entry no.	41	42	43	44	45
gsp ag	·	·	·	·	·
ClpP mod	-7.3%	-2.5%	-2.6%	-0.2%	-0.3%

[46] CCOc1ccc(CNC(=O)c2cccc(Nc3nc4ccccc4n4nnnc34)c2)cc1OC
[47] Cc1ccccc1CN1CCc2nc(N3CCN(c4ccccn4)CC3)ncc2C1
[48] Cc1cccc(Cn2cccc(C(=O)Nc3nnc(C)s3)c2=O)c1
[49] COc1ccc(NC(=O)CN2C(=O)C(C)N=C(c3ccccc3F)c3cc(Cl)ccc32)c(OC)c1 (stereo not given)
[50] Cc1cccc(Cn2cccc(C(=O)Nc3ccc4c(c3)OCCO4)c2=O)c1
entry no.	46	47	48	49	50
gsp ag	·	·	·	·	·
ClpP mod	1.8%	97%	-14%	0.1%	-4.2%

[51] N#Cc1cc2c(nc1SCC(=O)Nc1ccc(C(F)(F)F)cc1)C1CCN2CC1
[52] O=C(COc1ccc(Cl)cc1)Nc1ccc(Cl)cc1C(=O)c1ccccc1
[53] CCCCCN1C(=O)c2ccccc2[C@@]2(C(=O)OCC)Cc3cc(OC)ccc3[C@@H]12
[54] CN(Cc1cccc(-c2cccnc2)c1)C(=O)Oc1ccc([N+](=O)[O-])cc1
[55] CC[C@H]1c2ccccc2[C@@H]2CC[C@H]1N2c1ccccc1
entry no.	51	52	53	54	55
gsp ag	·	·	·	·	·
ClpP mod	9.0%	-1.4%	0.9%	-3.2%	?

[56] CCOc1ccc(CCNC(=O)c2cnc3sc(N4CCCC4)nn3c2=O)cc1
[57] CCOC(=O)CCCc1cc[c]([Sb](=[O])([OH])[OH])cc1
[58] Cc1ccc(OCC(=O)N2CCN(CCc3ccncc3)CC2)cc1
[59] COc1ccc(C(=O)CN2CCOCC2)cc1
[60] Cc1ccccc1-n1c(/C=C/c2ccccc2F)nc2ccccc2c1=O
entry no.	56	57	58	59	60
gsp ag	·	·	·	·	·
ClpP mod	?	-2.8%	0.1%	-3.3%	?

[61] CCOC(=O)[C@]12Cc3cc(OC)ccc3[C@H]1N(C(C)C)C(=O)c1cc(OC)ccc12
[62] C[C@@H]1COc2cc(N3CCN(C)CC3)ccc2S(=O)(=O)N1
[63] COC(=O)[C@@H]1N=C(c2ccc(OC)cc2)O[C@]12C(=O)N(Cc1ccc(OC)cc1)c1ccccc12
[64] Cc1ccc(CNc2cc(C)nc3nc(-c4ccc(C)cc4)nn23)cc1
[65] Cc1ccccc1C(=O)Nc1cc(-c2ccc(Cl)cc2)nn1-c1ccccc1
[66] C[C@H](CO)N1C[C@H](C)[C@@H](CN(C)C(=O)Oc2ccc3ccccc3c2)OCc2cnnn2CCCC1=O
[67] COC(=O)C1=C(c2ccc(OCc3ccccc3)cc2)C[C@@H]2CC[C@H]1N2C(=O)NCc1ccc(Cl)cc1
[68] C[C@@H]1CN([C@@H](C)CO)C(=O)CCCn2nncc2CO[C@@H]1CN(C)C(=O)Nc1ccc(N2CCCCC2)cc1
entry no.	61	62	63	64	65	66	67	68
gsp ag	·	·	·	·	·	-29%	-54%[inhibitor]	20%
ClpP mod	-2.2%	-1.1%	-5.0%	37%	145%	-2.9%	-5.5%	2.3%

High-throughput results from PubChem BioAssay.
